B2AR ag – human beta-2 adrenergic receptor agonism by FAP | P07550 | Am2.2-beta2AR cells, FAP receptor internalization, flow cytometry; reference of the scale not given here | response, % (concentration not given with the values) | hit rate 0.43% among 340,000 | AID 504454;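 active means response above a set limit, near 3 SD of response in nonfluorescent compounds, cut at about 42% in these data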;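 further: stock transfer was 100 nL into about 11 µL; a reference agonist was the positive control; negative values mostly stem from fluorescent compounds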
HNF4A DNA FP – change in binding of human HNF4 alpha to DNA. P41235. hit rate 0.3% among 360,000. HNF4a-FITC DNA binding, fluorescence polarization, 1 h. activity change, % at 10 µM; in the data active means activity change above about 30%, passing the limit was not always enough;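 further: controls were the assay level and a saturating level of protein; the project sought stronger binding though the title names inhibitors; some compounds called inactive have numbers as strong as hits; positive values seem to mean higher polarization but the record does not say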
ALR inh – inhibitors of human sulfhydryl oxidase ALR. purified ALR, DTT oxidation, H2O2 HRP-luminol luminescence. inhibition, % (concentration not given with the values). P55789. hit rate 3.8% among 290,000. AID 485317;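 active means mean and each replicate at 75% or more; inconclusive means only one of the two met; inactive means neither met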;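 further: stock transfer was 7.5 nL into about 7.5 µL; 0% = neutral wells and 100% = wells with inactivated enzyme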
UCH37 inh – blocks the human deubiquitinase UCH37. Q9Y5K5. purified proteasome/UCH37, Ub-AMC cleavage fluorescence. inhibition, % (no concentration beside the values). hit rate 0.33% among 330,000. AID 588478;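 active means mean of two replicates above 20%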;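 further: 0% = compound-free wells with enzyme and 100% = wells lacking proteasome; stock transfer was 100 nL into about 20 µL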
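Signal – fluorescence, ex 355 nm, em 460 nm · System – Proteasome-bound UCH37 · Input – 0.15 nM proteasome as dispensed · Timing – 30 min preincubation with enzyme, 25 min cleavage at room temperature · Read-out basis – percent inhibition of cleavage signal versus uninhibited and no-proteasome wells · Medium – Tris-HCl pH 7.4 with ATP-MgCl2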
FGF22 binding – binders of recombinant human FGF22 by thermal shift. hit rate 1.5% among 340,000. AID 651658. Q9HCT0. calls only at 9.99 µM. SYPRO orange fluorescence; percent of sucrose octasulfate shift, DMSO zero;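 active means melting point raised past a set limit in the mean and every replicate; inconclusive means no clear call; three in four hits are not shown here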
LANA-H2B inh – blocks KSHV LANA binding to histone H2A/H2B. inhibition, % (concentration not given with the values). Q9QR71. hit rate 0.6% among 320,000. cell-free LANA-H2A/H2B peptide, fluorescence polarization; in the data active means inhibition mostly above about 10%, no sharp cut-off; inactive means mostly below about 6.7%;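 further: stock transfer was 7.5 nL into about 10 µL; 0% = median of vehicle wells and 100% = median of positive control wells; one replicate is shown; the record names a cut of 25% in any replicate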
Target sequence (Q9QR71 whole entry, looked up): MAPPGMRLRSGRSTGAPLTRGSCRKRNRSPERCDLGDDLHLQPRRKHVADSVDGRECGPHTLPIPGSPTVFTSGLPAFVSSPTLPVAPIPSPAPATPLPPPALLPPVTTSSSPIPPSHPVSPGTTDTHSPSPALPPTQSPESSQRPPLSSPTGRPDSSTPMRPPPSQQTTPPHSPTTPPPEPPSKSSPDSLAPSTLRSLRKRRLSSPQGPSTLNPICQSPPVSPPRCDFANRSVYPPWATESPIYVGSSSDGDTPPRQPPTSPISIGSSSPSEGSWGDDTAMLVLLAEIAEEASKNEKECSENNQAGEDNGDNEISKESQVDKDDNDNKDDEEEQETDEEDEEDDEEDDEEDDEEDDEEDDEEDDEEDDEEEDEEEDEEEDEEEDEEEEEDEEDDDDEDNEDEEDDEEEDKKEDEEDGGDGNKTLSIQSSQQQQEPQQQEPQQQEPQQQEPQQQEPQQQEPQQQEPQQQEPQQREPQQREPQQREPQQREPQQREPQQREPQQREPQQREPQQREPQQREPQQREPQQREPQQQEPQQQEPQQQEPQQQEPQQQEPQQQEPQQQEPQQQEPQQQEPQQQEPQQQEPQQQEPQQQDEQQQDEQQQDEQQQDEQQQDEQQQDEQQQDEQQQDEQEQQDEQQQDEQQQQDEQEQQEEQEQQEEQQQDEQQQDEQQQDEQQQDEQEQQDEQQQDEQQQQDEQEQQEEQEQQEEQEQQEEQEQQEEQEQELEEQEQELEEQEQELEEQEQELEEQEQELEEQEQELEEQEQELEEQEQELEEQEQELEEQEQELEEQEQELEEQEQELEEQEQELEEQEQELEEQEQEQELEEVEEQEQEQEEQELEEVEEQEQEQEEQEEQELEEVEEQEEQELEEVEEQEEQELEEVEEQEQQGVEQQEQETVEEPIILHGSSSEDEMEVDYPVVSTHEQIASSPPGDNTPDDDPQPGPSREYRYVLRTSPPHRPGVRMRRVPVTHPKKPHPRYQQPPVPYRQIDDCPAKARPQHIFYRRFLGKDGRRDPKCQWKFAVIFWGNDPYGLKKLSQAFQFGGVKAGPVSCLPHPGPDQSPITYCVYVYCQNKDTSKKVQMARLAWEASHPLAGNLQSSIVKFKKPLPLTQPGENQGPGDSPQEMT
Ecoli growth – inhibitors of Escherichia coli growth | OD600, 23 h; stronger effect = lower value | OD600 absorbance (test concentration not listed) | hit rate 0.21% among 330,000 | AID 1053175;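 active means OD600 absorbance below the run mean of sample wells minus 3.6 SD, in any replicate, cut at about 0.56 in these data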;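 further: stock transfer was 300 nL into about 60 µL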
Starred values were filed as active, the others as inactive; i = inactive; ? = inconclusive; / = not tested or not shown.

The first 11 compounds as a preview:
SMILES	B2AR ag	HNF4A DNA FP	ALR inh	UCH37 inh	FGF22 binding	LANA-H2B inh	Ecoli growth
CCOc1ccc(N(CC(=O)NC2CCCC(C)C2C)S(=O)(=O)c2c(C)noc2C)cc1 (centres undefined)	-3	-2.1	-47	6.4	i	4.9	0.77
CC(C)CNC(=O)COC(=O)c1cc(Cl)cc(Cl)c1N	2	-0.4	-4	-254	/	3.2	0.74
COc1ccc(C(=O)Nc2oc(-c3ccccc3)c(-c3ccccc3)c2C#N)cc1	3	-6.4	9	-19	/	2.9	0.72
O=C(NC1CCN(C(=O)Nc2cccc(Cl)c2)CC1)c1ccco1	-2	3.2	-9	4.3	i	4.8	0.64
N#Cc1c(Nc2ccccc2)sc(C(=O)c2ccc(F)cc2)c1N	-7	2.4	4	-11	/	0.7	0.71
CC(C)(C)NC(=O)NC(=O)CN1c2cccc3cccc(c23)S1(=O)=O	-1	0.1	/	-41	i	8.3	0.66
COc1cc(/C=N/NC(=O)CCN2CCN(C(c3ccccc3)c3ccccc3)CC2)ccc1O	9	2.6	/	/	/	1.6	/
O=C(O)/C=C/C(=O)Nc1ccc(Oc2ncnc3cc(Cl)ccc23)nc1	/	/	7	6.0	/	8.6	0.67
COc1ccc(C)cc1S(=O)(=O)N1c2ccc(C)cc2C2CN(C)CCC21 (centres undefined)	2	-0.7	/	2.8	i	/	0.65
O=C(NC1CCCCC1)C(c1ccccn1)N(C(=O)Cc1cccs1)c1ccc(Cl)cc1 (centres undefined)	-5	-0.2	-16	-0.1	/	-0.7	0.7
COc1ccc(CC(=O)NNC(=O)Cc2ccc(OC)cc2)cc1	/	/	-14	0.6	/	2.2	0.67

The list itself (from the top)
SMILES	B2AR ag	HNF4A DNA FP	ALR inh	UCH37 inh	FGF22 binding	LANA-H2B inh	Ecoli growth
CCOc1ccc(N(CC(=O)NC2CCCC(C)C2C)S(=O)(=O)c2c(C)noc2C)cc1 (centres undefined)	-3	-2.1	-47	6.4	i	4.9	0.77
CC(C)CNC(=O)COC(=O)c1cc(Cl)cc(Cl)c1N	2	-0.4	-4	-254	/	3.2	0.74
COc1ccc(C(=O)Nc2oc(-c3ccccc3)c(-c3ccccc3)c2C#N)cc1	3	-6.4	9	-19	/	2.9	0.72
O=C(NC1CCN(C(=O)Nc2cccc(Cl)c2)CC1)c1ccco1	-2	3.2	-9	4.3	i	4.8	0.64
N#Cc1c(Nc2ccccc2)sc(C(=O)c2ccc(F)cc2)c1N	-7	2.4	4	-11	/	0.7	0.71
CC(C)(C)NC(=O)NC(=O)CN1c2cccc3cccc(c23)S1(=O)=O	-1	0.1	/	-41	i	8.3	0.66
COc1cc(/C=N/NC(=O)CCN2CCN(C(c3ccccc3)c3ccccc3)CC2)ccc1O	9	2.6	/	/	/	1.6	/
O=C(O)/C=C/C(=O)Nc1ccc(Oc2ncnc3cc(Cl)ccc23)nc1	/	/	7	6.0	/	8.6	0.67
COc1ccc(C)cc1S(=O)(=O)N1c2ccc(C)cc2C2CN(C)CCC21 (centres undefined)	2	-0.7	/	2.8	i	/	0.65
O=C(NC1CCCCC1)C(c1ccccn1)N(C(=O)Cc1cccs1)c1ccc(Cl)cc1 (centres undefined)	-5	-0.2	-16	-0.1	/	-0.7	0.7
COc1ccc(CC(=O)NNC(=O)Cc2ccc(OC)cc2)cc1	/	/	-14	0.6	/	2.2	0.67
CC(C)(C)OC(=O)NCCCC[C@H](NC(=O)c1[nH]cnc1C(=O)Nc1ccccc1)C(=O)OC(C)(C)C	7	-0.1	-19	3.6	i	0.1	/
CC(c1ccco1)N(Cc1ccco1)C(=O)Nc1ccccc1 (centres undefined)	5	-1.0	1	4.8	/	-1.7	0.69
CCOC(=O)[C@H]1[C@H]2COc3cc(OC)ccc3[C@@H]2N2C(=O)CN(Cc3ccco3)C(=O)[C@@]12C	2	0.3	-8	1.6	i	-0.7	/
COC(=O)c1ccc(Cn2nc(C)c([N+](=O)[O-])c2C)o1	-3	2.4	-1	-2.0	i	-3.0	0.66
COc1cccc(NC(=O)CSc2nc3ccccc3n2C)c1	-7	1.8	/	0.6	i	5.2	0.67
COc1ccc(/C=C/C(=O)N2CC(C)OC(C)C2)cc1OC (centres undefined)	0	-0.2	-4	-7.3	i	-0.9	0.68
CCOC(=O)c1cc([N+](=O)[O-])c([N+](=O)[O-])cc1NC(C)=O	74*	3.8	-9	7.3	i	/	0.67
O=[N+]([O-])c1nn(-c2ccc(Cl)cc2)n(O)c1=NCc1cccnc1	0	0.3	5	7.4	i	0.5	0.58
O=C(Nc1ccncc1)C1CC1c1ccccc1 (centres undefined)	-5	2.3	-3	1.5	/	3.3	0.69
COc1ccc(Cl)cc1NC(=O)COC(=O)CNC(=O)C1CCCCC1	0	2.4	/	2.0	i	1.1	0.67
Cc1ccc(/C(=N/Nc2nc3ccccc3s2)C2=C(O)c3ccccc3C2=O)cc1	1	-0.8	11	/	i	-2.2	/
O=C(Nc1cccc(F)c1)C1CCN(C(=O)c2ccccc2Cl)CC1	6	-1.8	-10	3.6	/	0.8	0.66
COc1ccc(N2C(=O)CC(c3cc(OC)c(OC)c(OC)c3)CC2=O)cc1	-6	0.6	/	0.7	i	-3.7	0.72
O=C(NCc1ccccc1CN1CCCC1)c1ccc(OCc2cscn2)cc1	-12	-0.6	-2	0.3	i	3.3	0.66
CCCCNC(=O)CCc1c(C)nc2nc(-c3cc(OC)cc(OC)c3)nn2c1C	-3	1.1	0	4.7	/	2.0	0.71
CCOC(=O)CNC(=O)CCNS(=O)(=O)c1ccc2c(c1)c(=O)n(C)c(=O)n2C	8	-1.8	-3	0.9	/	6.8	0.64
C=C1N(c2cccc(Cl)c2)C(=O)OC1(C)C	2	-0.3	-4	2.1	i	4.8	0.65
C=CCN(CC=C)C(=O)Nc1cc(OC)ccc1OC	1	2.7	-15	-1.2	i	0.0	0.65
O=C(N/N=C/c1c[nH]c2ccccc12)c1cccc([N+](=O)[O-])c1	0	-0.1	32	/	/	2.5	/
COc1ccc(NC(=O)C2=C(C)NC(=O)NC2c2cccc(OC)c2OC)c(OC)c1 (centres undefined)	1	-3.9	-5	-1.5	/	-3.7	0.67
S=c1[nH]nc(-c2ccncc2)n1/N=C/C(Cl)=C\c1ccccc1	6	-5.0	/	/	i	0.3	/
CC1CN(c2ccc([N+](=O)[O-])cc2C#N)CC(C)O1 (centres undefined)	-16	-0.6	-3	8.7	i	2.9	0.72
O=C(NCC1CCCO1)C(=Cc1cccc([N+](=O)[O-])c1)C(=O)NCC1CCCO1 (centres undefined)	2	3.6	11	-1.1	i	-5.8	0.68
COc1ccc(N2CCN(C(=O)c3oc4c(c3C)C(=O)CCC4)CC2)cc1	-11	-2.2	?	4.6	i	2.1	0.66
CCOc1ccc(C=O)cc1CN1CCCCC1	1	-3.6	-2	0.1	/	-6.9	0.74
Cc1ccc(CSCC(N)C(=O)O)cc1 (centres undefined)	/	/	99*	3.9	/	8.0	0.72
CC(OC(=O)CN1C(=O)c2ccccc2C1=O)C(=O)NC1CCCCC1C (centres undefined)	0	-0.2	-5	1.2	i	5.2	0.64
COc1ccc(CCNC(=O)c2oc3ccccc3c2C)cc1	-4	-1.7	-13	0.9	i	-11	0.66
O=C(c1ccc2oc(CCCc3ccccc3)nc2c1)N1CCCC(CCCO)C1 (centres undefined)	7	1.0	-1	3.8	i	-1.2	0.7
O=C1CC(c2ccccc2)C(=O)N1c1cccc(O)c1 (centres undefined)	-3	5.2	15	-1.3	/	-1.4	0.71
Cc1nc(-c2ccccc2)sc1-c1nc(-c2cccnc2)ncc1S(=O)(=O)c1ccccc1	-5	-1.0	-9	-3.9	/	-4.1	0.7
Cc1ccc(CN(C)C(=O)CSc2nnc3n2CCCCC3)c(C)c1	5	3.6	/	4.1	i	0.1	0.64
CCCCn1c(N)c(N(CC(C)C)C(=O)c2cnccn2)c(=O)[nH]c1=O	-8	0.4	-4	5.3	/	-3.1	0.69
COc1ccc(C(=O)[C@H]2[C@H]3C(=O)N(c4ccc(C)cc4)C(=O)[C@H]3C3C=CC=NN32)cc1 (some centres undefined)	-5	1.5	-6	1.9	i	3.6	0.66
O=C(c1ccccc1)N1CCN(c2ccc([N+](=O)[O-])c(NCC3CCCO3)c2)CC1 (centres undefined)	3	1.4	-33	9.4	i	0.5	0.7
CCCN(CC(=O)Nc1ccccc1OC)C(=O)CCC(=O)c1ccc(F)cc1	-4	1.9	-1	/	i	3.0	/
CC1CCN(C(=O)c2ccc(N(C)S(C)(=O)=O)cc2)CC1	-3	2.2	-4	5.7	/	4.9	0.77
COc1ccc(-c2nn(-c3ccccc3)cc2/C=C/C(=O)O)cc1[N+](=O)[O-]	5	3.3	17	5.1	i	0.6	0.66
COC(=O)c1ccc(NC(=O)CCN2C(=O)CSC2=O)cc1	-6	1.0	-3	-0.2	i	2.2	0.7
CON/C=C(\C=Nc1ccc(C(F)(F)F)cc1)c1ncc(C(F)(F)F)cc1Cl	1	-1.4	/	8.6	/	-2.9	0.67
CCOc1cc2[nH]c(=S)n(CCCN3CCN(C)CC3)c(=O)c2cc1OCC	2	-0.4	/	2.1	i	/	0.71
C=C1N(c2ccccc2)C(=O)OC1(C)C	5	4.5	-1	3.0	/	8.5	0.67
COc1ccccc1CNC(=O)CCS(=O)(=O)c1ccc2c(c1)CCCN2C(C)=O	-1	0.0	-2	3.5	/	-16	0.73
Cc1sc(NC(=O)c2ccco2)c(C(c2cccnc2)N2CCN(C)CC2)c1C (centres undefined)	0	-3.0	10	5.1	/	-4.4	0.71
Cc1oc2ccc(OCc3ccccc3Cl)cc2c1C(=O)O	6	1.9	-8	2.9	i	-0.6	0.66
CC12CCC(C(=O)NNc3ccc([N+](=O)[O-])cc3)(OC1=O)C2(C)C (centres undefined)	7	5.0	/	13	i	-7.1	0.66
CSc1cccc(NC(=S)N2CCC(N(C)C(C)C)CC2)c1	1	-0.7	-1	0.8	i	4.3	0.7
COc1cc(C(=O)N2CCN(c3ccccc3F)CC2)ccc1OCC(=O)N1CCOCC1	12	-1.6	-1	2.3	i	1.2	0.66
Cc1ccc(-c2nc(CSCC(=O)N3CCN(c4ccccn4)CC3)c(C)o2)cc1	-15	-0.5	99*	2.0	i	-0.4	0.7
Remaining list, next part
SMILES	B2AR ag	HNF4A DNA FP	ALR inh	UCH37 inh	FGF22 binding	LANA-H2B inh	Ecoli growth
COc1ccc(C(=O)NCCN2C(=O)S/C(=C\c3cccnc3)C2=O)cc1[N+](=O)[O-]	-2	1.9	4	5.5	i	5.0	0.69
O=C(CN1CCOCC1)Nc1ccccc1	-1	-2.6	5	2.8	i	2.5	0.63
O=C(O)C1CCCCC1C(=O)Nc1cccc(C(=O)N2CCCCC2)c1 (centres undefined)	6	-0.3	-2	1.3	i	-2.6	0.7
COc1cccc(C(=O)Nc2c(C)nn(-c3ccccc3)c2C)c1	-2	0.6	16	4.3	i	1.4	0.71
COc1ccc(C(OCC(O)CNCCc2ccccc2)c2ccc(OC)cc2)cc1 (centres undefined)	32	-1.6	-9	1.8	i	-1.7	0.66
Cc1ccnc(NC(=O)COC(=O)C2COc3ccccc3O2)n1 (centres undefined)	1	1.3	-4	-10	/	-2.1	0.72
Cc1cc(C(=O)Nc2sccc2C(N)=O)c(C)o1	0	-1.3	38	-1.1	i	-5.2	0.7
COc1ccccc1NC(=O)C(C)NS(=O)(=O)c1ccc(Cl)cc1 (centres undefined)	-6	-1.8	-7	-2.3	/	-1.7	0.73
O=C(CSC1=Nc2ccccc2C2=NC(Cc3c[nH]c4ccccc34)C(=O)N12)NC1CCCCC1 (centres undefined)	5	-0.1	-8	4.7	/	0.8	0.69
O=c1c2ccccc2nc(SCc2cc([N+](=O)[O-])cc3c2OCOC3)n1-c1ccccc1	5	0.4	-2	2.8	/	-1.4	0.74
CC(=O)Nc1ccc(NC(=S)NC(=O)c2ccc([N+](=O)[O-])c(C)c2)cc1	-15	-0.1	5	2.8	i	1.1	0.64

The list is partial; rates above refer to the full screens.
